Screening data from PubChem BioAssay.
D2 agonist: activates the human D2 dopamine receptor | activation, % (test concentration not listed) | DiscoveRx PathHunter D2 beta-arrestin, luminescence, 90 min; 100% = 57 uM dopamine signal | hit rate 0.084% among 360,000 | P14416; in the data active = activation above about 40%; inconclusive = about 15% to 40%; inactive = below about 15%; note: compound concentration not given in the record; the text of the record calls up to 30% inactive
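DiscoveRx PathHunter D2 beta-arrestin cells (2,100/well) attached overnight, then compound-stimulated 90 min at 37 C in HBSS/10 mM HEPES/0.1% Tween-20 buffer; beta-galactosidase complementation read by luminescence after 1 h at ambient temperature. Dopamine 57 uM final (EC100) as control.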
gsp ag: gsp mutant agonism; Potency, µM (top dose mostly 76.9 µM), for the others: top-dose activation (cAMP increase), most hits filed as activators; hit rate 0.13% among 340,000; gsp mutant cells, cAMP HTRF, 30 min; control for the full effect not named in the record; active = well fitted activation curve with a large enough effect; inconclusive = small, poorly fitted or top-dose-only effect, or another doubt; inactive = no such curve, though single readings can be large or run the other way; cell line not stated here;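 note: phosphodiesterase inhibitor Ro 20-1724 added with compounds to block cAMP breakdown; potency is the fitted concentration of half-maximal effect; nearly all actives have a fitted effect of over 60% in size; about a fifth of the inactives were tested at one dose only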
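Cells stably selected in G418 were plated at 2000/well, grown 16-24 hr, then given compounds in DMSO with the PDE inhibitor […] (300 uM solution added) for 30 min at 37C; cAMP was read by HTRF.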
D2 potentiator: human D2 receptor positive allosteric modulation | DiscoveRx D2 beta-arrestin cells, luminescence, 90 min; 100% = 57 uM dopamine signal | AID 624464 | P14416 | hit rate 0.23% among 360,000 | potentiation, % (concentration not given with the values); active = potentiation of 50% or more; inconclusive = 30% to 50%; inactive = 30% or less;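 note: compound concentration not given in the record; tested on top of an EC20 dose of dopamine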
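PathHunter beta-arrestin assay in DiscoveRx D2 cells. Compounds were added with an EC20 of dopamine (50 nM final) for 90 min at 37 deg C. Luminescence was read 1 h after detection reagent, with 57 uM dopamine as the EC100 control.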
gsp antag: antagonizes gsp, the McCune-Albright syndrome mutation | gsp-mutant cells, cAMP HTRF, 30 min; control for the full effect not named in the record | Potency, µM (highest dose often 76.9 µM), inactives show at the top dose activity change, negative = inhibition, actives largely listed as inhibitors | hit rate 0.4% among 340,000 | AID 624288; active = falling curve of any shape with a large fitted effect; inconclusive = falling curve, mostly with a smaller effect; inactive = flat or rising curve; cell line not stated here;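 note: intracellular cAMP measured with PDE inhibitor Ro 20-1724 present during compound exposure; potency is the fitted concentration of half-maximal effect; % is set by controls: 0 for no effect and ±100 for the full control effect; nearly all actives have a fitted effect of over 65% in size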
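HTRF cAMP measurement after 30 min RT detection following 30 min, 37C compound treatment alongside […] (added as 300 uM solution) in G418-selected cells seeded at 2000/well and grown 16–24 h.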
CtBP-E1A blk: inhibitors of CtBP/E1A interaction; AlphaScreen GST-E1A/His-CtBP binding, 1536-well; active compounds read low; control for the full effect not named in the record; activity change, % (test concentration not listed); hit rate 0.49% among 340,000; AID 651724; in the data active means activity change below about -65%; inconclusive means about -30% to -65%; inactive means above about -30%; note: % is set by controls: 0 for no effect and ±100 for the full control effect
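In 5 uL wells, 23 nL compound meets equimolar GST-E1A and His-CtBP (5X stock 125 nM each) for 2 h, 37 °C. Beads (5X, 50 ug/mL) then 1 h, 37 °C, dark.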
Six1-Eya2 inh: blocks human Six1 binding to Eya2; Q15475+O00167; AlphaScreen GST-Six1/His-Eya2 binding, biochemical; active compounds read low; control for the full effect not named in the record; activity change, % (test concentration not listed); hit rate 0.56% among 360,000; in the data active = activity change below about -65%; inconclusive = about -30% to -65%; inactive = above about -30%; note: % is set by controls: 0 for no effect and ±100 for the full control effect
Target sequence (O00167 whole entry, looked up): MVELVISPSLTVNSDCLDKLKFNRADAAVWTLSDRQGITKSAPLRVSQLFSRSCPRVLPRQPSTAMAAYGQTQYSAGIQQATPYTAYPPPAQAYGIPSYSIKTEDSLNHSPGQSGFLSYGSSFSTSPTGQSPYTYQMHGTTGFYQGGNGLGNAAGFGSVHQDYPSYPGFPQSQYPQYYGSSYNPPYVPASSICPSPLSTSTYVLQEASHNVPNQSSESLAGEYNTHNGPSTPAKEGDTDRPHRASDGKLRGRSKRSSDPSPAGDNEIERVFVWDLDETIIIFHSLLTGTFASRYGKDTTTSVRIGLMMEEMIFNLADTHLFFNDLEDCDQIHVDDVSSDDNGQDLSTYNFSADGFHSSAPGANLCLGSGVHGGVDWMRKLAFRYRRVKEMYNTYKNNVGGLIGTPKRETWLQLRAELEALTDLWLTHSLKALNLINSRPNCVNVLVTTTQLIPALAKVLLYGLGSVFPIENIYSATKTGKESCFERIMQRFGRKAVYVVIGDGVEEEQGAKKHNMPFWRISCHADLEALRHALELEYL
Target sequence (Q15475 whole entry, looked up): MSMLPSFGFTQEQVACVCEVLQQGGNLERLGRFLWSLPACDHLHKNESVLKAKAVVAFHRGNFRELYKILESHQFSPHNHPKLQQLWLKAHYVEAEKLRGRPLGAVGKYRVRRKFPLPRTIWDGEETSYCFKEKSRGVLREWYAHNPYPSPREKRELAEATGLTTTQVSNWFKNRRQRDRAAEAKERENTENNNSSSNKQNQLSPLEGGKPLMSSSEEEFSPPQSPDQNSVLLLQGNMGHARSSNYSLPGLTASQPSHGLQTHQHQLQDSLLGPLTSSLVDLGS
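GST-Six1 + His-Eya2 (5X stock: 250/500 nM); Tris pH 8.0, 300 mM NaCl, 0.05% BSA, 0.02% Tween 20; GSH donor/Ni acceptor beads; 1 h 37 °C dark; AlphaScreen readout.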
The depositor's hits bear a star; ? = inconclusive; · = not tested or not shown; [ ] = another dose, or the depositor's remark. Outcome played no part in choosing rows; any-hit rate near 1.4%.

SMILES	D2 agonist	gsp ag	D2 potentiator	gsp antag	CtBP-E1A blk	Six1-Eya2 inh
O=C(Cn1ncc2c1-c1ccccc1OC2)Nc1ccc(Cl)cn1	3.5	26%	-2	-19%	2	-1
COC(=O)c1ccc(NC(=O)Cn2c(-c3nonc3N)nc3ccccc32)cc1	1.4	-25%	-10	7%	·	-7
O=C(NCc1ccccn1)c1cccc(S(=O)(=O)Nc2ccc(SC(F)F)cc2)c1	-1.4	-54%[inhibitor]	1	12%	0	-3
COc1cccc(-c2cc(C(=O)Nc3cc(C)n(Cc4ccc(Cl)cc4)n3)no2)c1	-2.5	-5%	3	2%	-1	-1
Cc1cccc(NC(=O)CCC2CCN(C(=O)C3CC=CCC3)CC2)c1 (stereo not given)	0.4	9%[15.4 µM]	-33	-7%	-4	2
CC1=CC(C)(C)NC(=S)N1c1cccc(Cl)c1	1.2	-2%	-1	-2%	-2	3
COc1ccccc1CC(=O)N1CCN(S(=O)(=O)c2cccs2)CC1	-5.5	-21%[15.4 µM]	6	10%	-5	-7
CC(=O)/C(=N/Nc1ccccc1Cl)Sc1nnc(C(O)c2ccccc2)n1-c1ccccc1 (stereo not given)	-5.1	-1%	-11	-5%	0	7
CCN(CC)CCNC(=O)c1c(C)n(-c2ccccc2)c2cc(Br)c(OC)cc12	-1.4	25%	-36	15%	-17	-3
O=C1SCC(c2ccc(Cl)cc2Cl)=NN1Cc1nnc(-c2ccccc2)o1	-2.9	31%	-9	?	-5	-2
S=C(NC1CCCCC1)N(CCc1ccccc1)CCc1ccccc1	0.5	-48%[inhibitor]	-5	-2%	·	-10
Cc1nccn1CC(=O)N/N=C/c1cccs1	-0.9	3%[15.4 µM]	-6	5%	7	-11
Cc1ccc(SCC(=O)OCC(=O)N(CC(C)C)c2c(N)n(Cc3ccccc3)c(=O)[nH]c2=O)c(C)c1	-1.3	-7%[15.4 µM]	-1	8%	9	-7
CC(C)NC(=O)C(c1ccc(F)cc1)N(Cc1ccco1)C(=O)CCC(=O)Nc1ccccn1 (stereo not given)	-1.8	21%[15.4 µM]	-6	-3%	3	9
COc1ccc(-c2csc(NC(C)=O)n2)cc1OC	-4.2	-4%	-5	2%	-6	-10
Cc1ccccc1C(=O)NCCN=C1NS(=O)(=O)c2ccccc21	-7.0	-2%	-5	1%	2	3
Cc1cc(C)cc(OCC(=O)O/N=C(\N)c2cccnc2)c1	-6.1	3%[15.4 µM]	-2	4%	-10	10
O=C(CSc1nc2ncccc2[nH]1)Nc1ccccc1-c1ccccc1	-3.7	11%	-11	-1%	4	4
COc1ccc(CCNC(=O)Cn2ccc3c(OC)cccc3c2=O)cc1OC	-1.0	5%	5	11%	9	19
CCOc1ccc(=O)n(-c2ccccc2)n1	0.0	2%	-3	10%	7	-1
CCOC(=O)c1c(C)[nH]c(C(=O)NNC(=O)c2ccc(C(C)(C)C)cc2)c1C	-0.1	-2%	-19	11%	-14	-14
O=C1NC(=O)C(=CC=Cc2ccccc2)S1	-0.9	-31%[inhibitor]	-9	·	-5	-4
O=C(C1CC1)N1CCc2cc(Br)cc(S(=O)(=O)N3CCOCC3)c21	0.1	-29%	25	?	-25	-24
CC(C)CNC(=O)CSc1nc(-c2cccs2)cc(C(F)(F)F)n1	-0.8	-25%	-1	-7%	1	-2
Cc1ccc(CS(=O)(=O)Cc2ccc(C(=O)NCc3cccnc3)o2)cc1	-0.7	-49%[inhibitor]	-1	-14%	9	-1
Cc1nc2sccn2c(=O)c1S(=O)(=O)NCCc1ccccc1	-7.5	?	-3	6%	5	8
CCOC(=O)c1c(N)nn(C(=O)c2ccccc2F)c1-c1ccc(OC)cc1	-4.1	-16%[15.4 µM]	-10	?	3	-1
CCC(C)NS(=O)(=O)c1ccc(OCC(=O)NCc2ccccn2)cc1 (stereo not given)	0.0	14%	-3	10%	5	18
Clc1ccc(-c2c[n+]3c(n2-c2ccccc2)SCC3)cc1	2.5	-11%[15.4 µM]	-13	6%	12	7
CNC(=S)NNC(=O)c1sccc1OCc1ccc(C)cc1	-1.6	-27%	-6	-4%	3	-1
O=C(/C=C/c1ccccc1)COC(=O)c1ccccc1	-8.3	13%	-18	8%	-22	-6
CCCCC(CC)CNC(=O)CN1C(=O)NC2(CCc3ccccc32)C1=O (stereo not given)	9.8	26%[15.4 µM]	-6	-10%	21	10
CC(CC(=O)O)NCC1COc2ccccc2O1 (stereo not given)	2.2	-13%[15.4 µM]	-1	-8%	6	-1
COCCNC(=S)N(Cc1cccs1)Cc1cc2cccc(C)c2[nH]c1=O	-4.1	-11%[15.4 µM]	-7	?	0	-2
CC1CCC(N2CCN(S(C)(=O)=O)CC2)CC1 (stereo not given)	0.4	1%	-11	11%	-5	3
CN1CCN(C(=O)CSc2nc(-c3ccncc3)ccc2C#N)CC1	-1.8	-34%[inhibitor]	3	-12%[15.4 µM]	-3	0
CCOC(=O)C1=C(C)NC(=O)NC1c1ccc(N(C)C)cc1 (stereo not given)	-1.6	22%	-7	2%	1	1
O=C(CN(Cc1ccco1)C(=O)c1ccccc1F)Nc1ccccc1C(F)(F)F	-5.5	22%	-2	8%	-4	6
[O-][n+]1c2cc(C(F)(F)F)ccc2c2n1CCN=C2c1ccc(Cl)cc1	6.9	0%	1	-3%	-14	13
O=C(Cc1ccc(Cl)c(Cl)c1)Nc1ccccc1N1CCCC1	-0.6	25%	7	?	-4	-6
Cc1cc(C)cc(C(=O)NCCN2CCOCC2)c1	1.1	11%[15.4 µM]	-9	-3%	7	-1
CCCCOc1ccc(C2/C(=C(\O)c3ccc4c(c3)OCCO4)C(=O)C(=O)N2CCCN2CCOCC2)cc1 (stereo not given)	0.3	15%[15.4 µM]	6	0%	3	3
COc1cc2ccccc2cc1C(=O)N(CCN(C)C)c1nc2c(OC)ccc(OC)c2s1	-3.0	0%	-31	18%	?	?
Cc1nnc(NC(=O)CC(CN(C)S(=O)(=O)c2ccccc2)c2ccccc2)s1 (stereo not given)	-3.4	-34%[inhibitor]	-5	-3%	-2	-10
Cc1cccc(C)c1-n1c(C)nn(CC#N)c1=O	3.5	13%[15.4 µM]	4	2%	-2	6
O=C(NCCCN1CCOCC1)C(C(=O)NCCCN1CCOCC1)c1ncc(C(F)(F)F)cc1Cl	-6.5	8%	-4	-2%	14	-6
CCN1CCN(Cc2cc(=O)oc3ccc(C)cc23)CC1	-1.8	11%	-6	2%	0	18
Nn1c(SCC(=O)Nc2ccc3c(c2)OCO3)nnc1-c1cccc(Cl)c1	1.5	?	-15	12%	-8	1

4 of the compounds above, comma-delimited.
SMILES,D2 agonist,gsp ag,D2 potentiator,gsp antag,CtBP-E1A blk,Six1-Eya2 inh
O=C(CN(Cc1ccco1)C(=O)c1ccccc1F)Nc1ccccc1C(F)(F)F,-5.5,22%,-2,8%,-4,6
[O-][n+]1c2cc(C(F)(F)F)ccc2c2n1CCN=C2c1ccc(Cl)cc1,6.9,0%,1,-3%,-14,13
O=C(Cc1ccc(Cl)c(Cl)c1)Nc1ccccc1N1CCCC1,-0.6,25%,7,?,-4,-6
Cc1cc(C)cc(C(=O)NCCN2CCOCC2)c1,1.1,11%[15.4 µM],-9,-3%,7,-1

More entries.
SMILES	D2 agonist	gsp ag	D2 potentiator	gsp antag	CtBP-E1A blk	Six1-Eya2 inh
COc1ccc(OC)c(NC(=O)CC2C(=O)NCCN2C(=O)Nc2cccc(Cl)c2)c1 (stereo not given)	-5.4	17%	-6	-5%	-19	-13
Cc1ccc2c(c1)N(C(=O)CCC(=O)NC1CCN(Cc3ccccc3)CC1)CC(C)O2 (stereo not given)	-8.1	-11%	-14	-1%	0	1
O=C(CCNC(=O)c1ccc(Br)cc1)NCc1ccncc1	-3.0	14%[15.4 µM]	6	7%	-1	7
O=c1c2ccccc2nc2ccc(N3CCOCC3)nn12	0.9	?	-3	9%	?	-28
N#Cc1ccc(CSC2=NCCN2)cc1	-0.5	-3%[15.4 µM]	-15	·	0	-2
Cc1ccc(Cn2c(C3CCCN3c3nc(C)cs3)nc3cc(C(F)(F)F)ccc32)cc1 (stereo not given)	-0.4	·	-19	-12%	-10	-12
Oc1c(C(Nc2cccc(C(F)(F)F)c2)c2ccncc2)ccc2cccnc12 (stereo not given)	-2.3	-5%[15.4 µM]	9	-9%	-94*	-92*
O=C(Oc1cccc([N+](=O)[O-])c1)c1cc(-c2ccccc2)nc2ccccc12	-7.1	4%	-5	-4%	9	-1
CCOc1ccccc1CN1CCC(n2nccc2NC(=O)CCCc2ccccc2)CC1	-2.4	23%	-26	-1%	-3	-8
O=C(NCCCN1CCCC1=O)c1ccc(OC(F)(F)F)cc1	0.4	13%[15.4 µM]	9	·	5	0
CCc1ccc(/C=C2/C(=O)NC(=O)N2C(C)=O)cc1	-0.1	-18%[15.4 µM]	-1	-1%	-2	0
O=C(Nc1ccccc1N1CCCC1)c1cc(S(=O)(=O)N2CCOCC2)ccc1Cl	-0.9	5%	-15	-2%	-4	-6
CCOC(=O)c1c(NC(=S)NC(=O)c2ccc(Cn3cc(Cl)cn3)o2)sc2c1CCCCC2	-3.7	-2%	-19	-7%	6	-4
COc1cc(/C=C/CNC[C@H]2O[C@@H](n3ccc(N)nc3=O)[C@H](O)[C@@H]2O)ccc1O	-2.0	-30%[inhibitor]	0	·	-4	23
Cc1cc(N(C(=O)c2ccco2)C(C(=O)NC2CCCCC2)c2ccccc2)ccc1-n1cnnn1 (stereo not given)	-0.2	-13%	-6	-14%	43	20
O=C(NC1CCCCC1)c1ccc2ccccc2c1O	4.7	-8%	-4	·	3	9
Cc1cc(C(=O)NN=Cc2ccc(OC(=O)c3ccco3)cc2)c(C)o1	-1.6	6%	-8	-2%	2	-15
O=C(NCCCN1CCN(c2cccc(Cl)c2)CC1)C1CCC(=O)N1Cc1ccccc1Cl (stereo not given)	2.4	29%	-49	9%	19	3
CC1(C)C(=O)N(c2ccccc2F)C(=O)c2ccccc21	1.8	8%[15.4 µM]	-2	4%	3	1
CCOC(=O)c1cnn(-c2ccccc2)c1NC(=O)c1ccccc1C	-2.0	-31%[inhibitor]	-18	0%	6	0
O=C(O)CCCCCNc1ncnc2ccc(Br)cc12	-0.8	?	-9	-4%	-7	-2
Cc1ccc(NC(=O)COc2ccc(-n3ccnc3)cc2)cc1Cl	1.6	-13%	-25	-8%	-6	-13
C=CCNC(=O)c1cc2c(C(F)(F)F)nn(C)c2s1	3.1	4%	-4	10%	1	6
COc1ccc(/C=N/N2CCOCC2)cc1O	-1.9	-10%	-19	-22%	-7	-3
COc1cccc(S(=O)(=O)N(C)C[C@H]2OCc3cn(nn3)CCCC(=O)N([C@H](C)CO)C[C@@H]2C)c1	-5.3	12%	2	·	1	0
Cc1ccc(-c2cc(C(=O)Nc3cc(C)ccc3C)[nH]n2)c(O)c1	-0.2	-7%	-10	1%	0	4
Cc1ccc(N(CC(=O)N2CCCCCC2)S(C)(=O)=O)c(C)c1	-2.6	-13%	-18	·	-1	11
